Mtb growth: Mycobacterium tuberculosis H37Rv growth inhibition, cell based, confirmatory dose response (AID 1949). 100,000 tested, 1.6% active. most inactive calls were filed without a number and no value below 0 was filed. inhibition, % at 10 µg/mL; hits with a dose series show IC50 in µg/mL;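 active = confirmed in a dose series; inconclusive = about 50% or more but not retested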;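 also: bacteria grown 7 days with compound before Alamar blue readout; 0% = untreated bacteria and 100% = reference antibiotic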
* = called active by the depositor; i = inactive; ? = inconclusive. The list is partial; count on the stated rates, not on these rows.

SMILES | Mtb growth
CC1=CC(C)C2C(=O)N(Cc3ccco3)C(=O)C2C1 (stereo not drawn) | 0.5%
CCc1cc(C(=O)OC)c(NC(=S)Nc2nc(C)cc(C)n2)s1 | i
O=C(Nc1cccc(OCC(=O)N2CCOCC2)c1)C1CCCCC1 | i
CSc1nc2sc3c(c2c(=S)[nH]1)CCCC3 | 44.8%
CCc1cc2cc(C(=O)N3CCN(c4ccccc4)CC3)sc2s1 | 4.1%
Cc1occc1C(=O)NCCCN1CCOCC1 | i
C=CCn1c(SCC(=O)c2ccc(Cl)s2)nc2sc3c(c2c1=O)CCC3 | i
Cc1ccc(C(=O)N2CCN(c3ccccc3)CC2)cc1S(=O)(=O)N1CCCC1 | i
Cc1cc(OCCCNC(C)(C)C)ccc1C(C)C | i
O=C(c1ccccc1)N1N=C(c2ccco2)CC1c1ccco1 (stereo not drawn) | 5.9%
Nc1nnc(SC2CC(=O)N(c3ccccc3)C2=O)s1 (stereo not drawn) | i
Cc1ccc(S(=O)(=O)N(CC(=O)N2CCCCCC2)Cc2cccc(Cl)c2)cc1 | i
CCCN1CCC(NC(=S)Nc2ccc(C(=O)OCC)cc2)CC1 | i
CC(=O)Nc1ccc2nc(NC(=O)c3cccnc3)sc2c1 | i
Cc1ccc(C(=O)NCCNC(=O)c2ccc(C)nc2)cn1 | i
Cc1ccc(C(C)(C)C)c(OCCOCCN2CCOCC2)c1 | 4.6%
Cc1cc2c(cc1C)NC(=O)CC(c1ccccc1O)=N2 | 1.3%
c1ccc2c(c1)ncn2CC1CCCCC1 | 0.3%
O=C(CN(Cc1ccccc1)S(=O)(=O)c1ccc(Br)cc1)NC1CCCC1 | i
CCSC1=C(C#N)C(c2ccccc2OC)C(C(=O)OC)C(=O)N1 (stereo not drawn) | i

Structures above with a thiophene ring, fused or not (4):
SMILES | Mtb growth
CCc1cc(C(=O)OC)c(NC(=S)Nc2nc(C)cc(C)n2)s1 | i
CSc1nc2sc3c(c2c(=S)[nH]1)CCCC3 | 44.8%
CCc1cc2cc(C(=O)N3CCN(c4ccccc4)CC3)sc2s1 | 4.1%
C=CCn1c(SCC(=O)c2ccc(Cl)s2)nc2sc3c(c2c1=O)CCC3 | i

Rewritten as labelled records: part of the list above
> Nc1nnc(SC2CC(=O)N(c3ccccc3)C2=O)s1 (stereo not drawn)
  Mtb growth: i
> CCc1cc2cc(C(=O)N3CCN(c4ccccc4)CC3)sc2s1
  Mtb growth: 4.1%
> O=C(Nc1cccc(OCC(=O)N2CCOCC2)c1)C1CCCCC1
  Mtb growth: i
> Cc1cc2c(cc1C)NC(=O)CC(c1ccccc1O)=N2
  Mtb growth: 1.3%

Further results:
SMILES | Mtb growth
CCn1c(CCNC(=O)c2ccc(Cl)cc2Cl)n[nH]c1=S | i
Cn1c(SCc2ccccc2)nnc1-c1ccc([N+](=O)[O-])cc1 | i
Nc1c(-c2ccccc2)c(COc2ccccc2)nn1-c1nc2ccccc2s1 | 6.6%
COC(=O)Nc1ccc([N+](=O)[O-])cc1OC | i
COC(=O)c1sccc1NC(=O)Cn1c(-c2nonc2N)nc2ccccc21 | i
COc1ccc(NC(=O)C(C)NS(=O)(=O)c2ccc(C)cc2)cc1Cl (stereo not drawn) | i
COCc1nc2ccccc2n1CCc1ccccc1 | i
CCC(=O)Oc1ccc(C(=O)Nc2cc3oc4ccccc4c3cc2OC)cc1 | 1.46µg/mL*
CC1CCN(S(=O)(=O)c2cccc(C(=O)Nc3nccs3)c2)CC1 | 2.9%
Cc1ccc(C(=O)Oc2ccc(Br)cc2Cl)cc1 | i
O=C(CCc1ccccc1)NC(c1ccc(Cl)cc1)c1ccc2cccnc2c1O (stereo not drawn) | i
CCOC(=O)c1ccc(COC(=O)c2ccccc2[N+](=O)[O-])c(Br)c1 | i
CCOC(=O)c1c(NC(C)=O)sc(C(N)=O)c1C | i
COc1ccc(Cl)cc1NC(=O)CN(c1ccc(Br)cc1)S(C)(=O)=O | 9.7%
Fc1ccccc1N1CCN(C2CCN(Cc3ccccc3C(F)(F)F)CC2)CC1 | i
O=C(COc1ccc(Br)cc1)Nc1ccc(-c2nc3ccccc3o2)c(O)c1 | 0.4%
CC(C)C(NC(=O)c1ccccc1)c1nnc(SCC(=O)Nc2nccs2)n1C (stereo not drawn) | i
C=CCc1cc(C)cc(C)c1OCCCn1cncn1 | i
COc1ccc2ccccc2c1/C=C(\C#N)C(N)=O | i
Cc1c(C=O)c(C=O)c(C)n1Cc1ccc(C(=O)O)cc1 | i
Cc1cc(-n2c(C)cc(/C=C3\NC(=O)NC3=O)c2C)ccc1Br | 8.38µg/mL*
CCOC(=O)c1c(-c2ccc(C)o2)csc1NC(=S)NC(=O)N(C)C | 1.85µg/mL*
CC(=O)Nc1ccc(C(=O)CSc2nnc(-c3ccncc3)o2)cc1 | 2.2%
COc1ccc(C(C)(C)C)cc1NC(=S)Nc1ccc(S(=O)(=O)Nc2ncccn2)cc1 | i
COc1ccc(/C(N)=N/OC(=O)c2ccco2)cc1OC | i
CCOC(=O)c1ccc(N2C(=O)CC(N3CCC(O)CC3)C2=O)cc1 (stereo not drawn) | i
CCOC(=O)Cc1csc(NC(=O)c2sc3cccc(F)c3c2Cl)n1 | i
O=C(c1ccc([N+](=O)[O-])cc1)N(C(F)(F)F)C(F)(F)F | i
O=C(Nc1ccc(F)cc1)Nc1nccs1 | 2.4%
CC(C)(C)NCCCCOc1ccc(Cl)cc1C(C)(C)C | 3.77µg/mL*
O=C(Nc1cccnc1)c1ccc2nc(N3C(=O)c4ccccc4C3=O)sc2c1 | i
CC(C)c1ccc(C2CC(c3ccc(Br)cc3)Nc3nc(N)nn32)cc1 (stereo not drawn) | 6.2%
CCN(CC)S(=O)(=O)c1ccc(Cl)c(S(=O)(=O)N(CC)CC)c1 | 1.7%
O=C(Nc1c(F)c(F)c(F)c(F)c1F)c1cccnc1 | 0.1%
COc1cc(OC)cc(C(=O)N2CCN(C(=O)c3cccc(F)c3)CC2)c1 | i
C=C(C)CNC(=S)Nc1cccc(N)n1 | i
O=C1c2cccc3cc(Br)cc(c23)C(=O)N1CCO | i
CC(CNC(=O)c1ccc(I)cc1)CN(C)C (stereo not drawn) | 0.2%
CC(C)C(=O)Nc1cccc(C(=O)Nc2ccc(I)cc2)c1 | i
Cc1ccc(N(CC(=O)Nc2cc(Cl)ccc2Cl)S(C)(=O)=O)cc1C | 3.4%
Cc1ccc(SCC(=O)Nc2ncc(C)s2)cc1 | ?
c1ccc2[nH]c(CCc3nc4ccccc4s3)nc2c1 | 1.7%
CCOC(=O)c1c(NC(=S)Nc2ccc(C)cc2)sc2c1CC(C)(C)OC2 | ?
Cc1cccc(C)c1NC(=O)c1cccc(C(=O)Nc2c(C)cccc2C)n1 | i
CCCNC(=O)c1ccccc1NC(=O)c1ccco1 | i
COC(=O)c1ccccc1NC(=O)NCc1cccnc1 | i
CCC(Oc1ccccc1)C(=O)NC1C2CC3CC(C2)CC1C3 (stereo not drawn) | 0.4%
Cc1ccc(C(=O)NCc2nnc(SCC(=O)Nc3ccc(C(C)C)cc3)n2C)cc1 | i
CCOC(=O)c1c(NC(=O)COc2ccccc2)sc(C(N)=O)c1C | i
Oc1ccccc1Cn1c(-c2ccccc2O)nc2ccccc21 | 3.7%
CN1CCN(C(=O)N2c3ccccc3Sc3ccccc32)CC1 | i
O=C(OCc1ccc(Cl)cc1)c1cnccn1 | ?
Cc1cccc(C(=O)O)c1NC(=O)C(C)Oc1ccc(Cl)cc1Cl (stereo not drawn) | i
O=S(=O)(NCCC1=CCCCC1)c1ccc(Br)cc1 | 4.3%
CC(C)c1ccccc1NC(=O)Cc1c(F)cccc1Cl | i
Cn1cc(Cl)c(C(=O)Nc2nccs2)n1 | i
CCOC(=O)C1CCN(C(=O)CN(c2ccc(C)cc2)S(C)(=O)=O)CC1 | i
COc1ccc(Cl)cc1/C=C(/C#N)c1ccc(F)cc1 | i
CC(Oc1ccc(Cl)cc1Cl)C(=O)NC(=S)Nc1ccccc1F (stereo not drawn) | i
CCOC(=O)N1CCN(C(=O)CCc2ccc(S(=O)(=O)NCCc3ccccc3)cc2)CC1 | i

(listing goes on)
SMILES | Mtb growth
COc1ccc(-c2nnc3c4ccccc4c(C)nn23)cc1S(=O)(=O)NC(C)(C)C | i
CC(C(=O)NC1CCCCCC1)N(c1ccc(Oc2ccccc2)cc1)S(C)(=O)=O (stereo not drawn) | i
CCC(Sc1ncccc1C(=O)O)C(=O)O (stereo not drawn) | 7.5%
O=C(CSc1nnc(Cc2ccccc2)n1C1CCCCC1)N1CCc2ccccc21 | i
CC(=O)c1cn(CC(=O)NCC2CCCO2)c2ccccc12 (stereo not drawn) | i
O=C1c2ccccc2C(=O)N1CCOc1ccc2c(c1)CCC2 | i
COc1ccc2ccccc2c1/C=N/Nc1ccc([N+](=O)[O-])cc1 | i
CCCC(=O)Nc1cccc(NC(=S)NC(=O)C(C)Oc2ccc(Cl)cc2Cl)c1 (stereo not drawn) | i
C=CCn1c(CNC(=O)c2ccco2)nnc1SCC(=O)Nc1ccc(Br)c(Cl)c1 | i
CCC(C)NC(=S)Nc1ccc(Cl)cc1 (stereo not drawn) | i
CCOC(=O)c1c(NC(=O)C(C)C)sc2c1CCC2 | i
Cc1cc(NC(=O)CSc2nc(-c3ccccc3)c(-c3ccccc3)o2)no1 | i
COc1ccc(C2CC(=O)C=C(Nc3ccc(C)cc3)C2)cc1 (stereo not drawn) | 4.6%
O=C(c1ccco1)N1CCN(C(=S)Nc2ccc(Cl)cc2Cl)CC1 | i
CC1CCN(S(=O)(=O)c2ccc(NC(=O)CCN3C(=O)c4ccccc4C3=O)cc2)CC1 | i
CC(C(=O)Nc1cc(Cl)ccc1Oc1ccccc1)N(c1ccccc1)S(C)(=O)=O (stereo not drawn) | 1.2%
CCC(C(=O)Nc1cccc(C#N)c1)c1ccccc1 (stereo not drawn) | 1.5%
CCOC(=O)C(=O)N1CCN(c2ccccc2)CC1 | i
O=C(NCc1ccccc1Cl)c1ccccc1-c1ccccc1 | ?
COc1ccc(C(=O)NC(=S)Nc2cccc(C)c2C)cc1Br | i
O=C(NCc1ccccc1)c1ccc2c(=O)n(-c3ccccc3)c(=O)[nH]c2c1 | i
Cc1nc(NC(=O)c2ccccc2)sc1-c1csc(Nc2ccccn2)n1 | i
Cc1cc(NC(=O)C2CC=CCC2C(=O)O)ccc1NC(=O)Cc1ccccc1 (stereo not drawn) | i
Cn1c(=O)c2c(nc(CN3CCC(Cc4ccccc4)CC3)n2CC(=O)c2ccccc2)n(C)c1=O | i
Cc1ccc(C(C)C)cc1OCC(=O)N=Nc1c(O)[nH]c2c(C)cccc12 | i
O=C(Nc1cccc(C(F)(F)F)c1)Nc1ccn(Cc2c(F)cccc2Cl)n1 | i
O=C(COc1ccccc1Br)Nc1ccc(N2CCOCC2)c(Cl)c1 | i
O=C(NCc1cccnc1)c1ccc(NC(=O)C2CCCCC2C(=O)O)cc1 (stereo not drawn) | i
O=C(Nc1ccc(Cl)cc1Cl)c1ccccc1Br | 0.8%
Cc1ccccc1NC(=O)Nc1ccc(OCc2ccccc2)cc1 | i
Cc1nc2ccccc2n1CC(O)COc1ccc(Cl)cc1 (stereo not drawn) | ?
N#Cc1nc(COc2ccc(Br)cc2)oc1NC1CC1 | i
Cc1cc(Br)ccc1OCC(=O)Nc1c(C)cccc1C | i
S=C(Nc1ccc(Br)cc1)N1CCCCC1 | i
CCOC(=O)c1ccc(Oc2nc(OC)nc(N(C)C)n2)cc1 | i
CN1CCN(C(=O)COc2cc(Cl)c(Cl)cc2Cl)CC1 | 2.3%
Cc1ccc(C)c(S(=O)(=O)NCc2ccc(C(=O)N3CCN(c4ccccc4F)CC3)cc2)c1 | 4.8%
O=C(Nc1ccc(Cl)cc1C(=O)N1CCCCC1CCO)c1ccc(Cl)cc1Cl (stereo not drawn) | 0.7%
CCN(CC)C(=O)C1=C(C)NC(=S)NC1c1ccc(Cl)cc1Cl (stereo not drawn) | i
Cc1cc2ccccc2n2c(SCC(=O)Nc3ccccc3F)nnc12 | i
O=c1[nH]c(-c2cccc(Cl)c2)nc2ccccc12 | i
CCSc1ccc(NS(=O)(=O)c2ccc(Cl)cc2)cc1 | i
COc1ccc(OC)c(NC(=O)CN(c2cccc(C)c2C)S(=O)(=O)c2ccc(C)cc2)c1 | i
COc1ccc(S(=O)(=O)Nc2ccc(C(C)=O)cc2)cc1OC | i
COc1ccc(C)cc1S(=O)(=O)N(C)CC(=O)NCc1ccco1 | i
CCOc1cc(CNC(CC)CO)c(Cl)cc1OCC(N)=O (stereo not drawn) | i
Cc1cccc(C(=O)NC2CCCCC2C)c1 (stereo not drawn) | i
O=C(Nc1ccccc1OC(=O)N1CCOCC1)N1CCOCC1 | i
O=C(CSc1nnc(-c2cccs2)n1-c1ccccc1)NCc1ccc2c(c1)OCO2 | i
CCOc1ccc(Cl)cc1S(=O)(=O)N1CCN(c2ccc(F)cc2)CC1 | 4.4%
O=C(COc1ccc(C(=O)Nc2cccc(C(F)(F)F)c2)cc1)NC1CCCCC1 | i
Cn1c(COc2ccccc2Cl)nnc1SCC(=O)Nc1cccc(Cl)c1Cl | 0.4%
Cc1cc(SCCOc2ccc(Br)cc2)nc(N)n1 | 10.1%
Cc1ccc(C(=O)N2CCN(c3ccc(NC(=O)c4ccc(Cl)cc4Cl)cc3)CC2)cc1 | i

An excerpt from above in order of molar mass, lowest first:
SMILES | Mtb growth
CCSc1ccc(NS(=O)(=O)c2ccc(Cl)cc2)cc1 | i
CCOc1cc(CNC(CC)CO)c(Cl)cc1OCC(N)=O (stereo not drawn) | i
COc1ccc(S(=O)(=O)Nc2ccc(C(C)=O)cc2)cc1OC | i
O=C(COc1ccc(C(=O)Nc2cccc(C(F)(F)F)c2)cc1)NC1CCCCC1 | i
O=C(CSc1nnc(-c2cccs2)n1-c1ccccc1)NCc1ccc2c(c1)OCO2 | i
Cn1c(COc2ccccc2Cl)nnc1SCC(=O)Nc1cccc(Cl)c1Cl | 0.4%
